# Assay outcomes from PubChem.
# VDR inh: inhibitors of human vitamin D receptor. P11473. VDR-SRC2-3 peptide fluorescence polarization, 2 h. Potency, µM, for inactives: max response, negative = inhibition, actives largely listed as inhibitors. hit rate 0.93% among 400,000. AID 504847; active = well fitted inhibition curve with a large enough effect; inconclusive = small, poorly fitted or top-dose-only effect, or another doubt; inactive = no such curve, though single readings can be large or run the other way; note: series mostly up to about 120 µM
# Target sequence (P11473 whole entry, looked up): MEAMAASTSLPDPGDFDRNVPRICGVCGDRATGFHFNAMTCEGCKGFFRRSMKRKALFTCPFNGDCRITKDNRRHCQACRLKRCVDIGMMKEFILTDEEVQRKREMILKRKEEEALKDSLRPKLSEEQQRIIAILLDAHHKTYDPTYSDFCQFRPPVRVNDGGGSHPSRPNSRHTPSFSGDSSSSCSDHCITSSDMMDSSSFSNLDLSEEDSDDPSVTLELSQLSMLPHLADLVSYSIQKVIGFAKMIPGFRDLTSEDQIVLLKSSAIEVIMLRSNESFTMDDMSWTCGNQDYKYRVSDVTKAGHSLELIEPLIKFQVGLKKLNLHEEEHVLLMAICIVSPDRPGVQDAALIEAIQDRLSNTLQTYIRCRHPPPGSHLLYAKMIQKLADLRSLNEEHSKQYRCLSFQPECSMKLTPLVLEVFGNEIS
#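 Two reagent solutions held at 4 deg C in the dark were dispensed, compounds pinned at 23 nl, and the mixture incubated 2 h at room temperature. Read-out: fluorescence polarization of VDR–SRC2-3 peptide binding.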
# The depositor's hits bear a star; ? = inconclusive; & = joins results of further samples; [ ] = dose if it differs, or a comment. % is set by controls: 0 for no effect and ±100 for the full control effect; potency is the fitted concentration of half-maximal effect.
canonical_smiles | VDR inh
CC(C)C(NC(=O)c1ccc(C(C)(C)C)cc1)C(=O)NC1=NCCS1 (stereo not given) | -2.2%
C[C@H](CO)N1C[C@H](C)[C@@H](CN(C)C(=O)Nc2ccccc2)Oc2ccc(NS(=O)(=O)c3ccccc3)cc2C1=O | 5.7%
CCOC(=O)c1cc(S(=O)(=O)Nc2c(C)cc(C)cc2C)[nH]n1 | 10.3%
O=C(Nc1ccc(F)c(F)c1)C1CCCN1S(=O)(=O)c1ccc(F)cc1 (stereo not given) | 5.5%
c1ccc(-c2nc(NCc3ccco3)c3oc4ccccc4c3n2)cc1 | -1.1%
CCN1CCCC1CNC(=O)c1ccc(N2CCCC2=O)cc1 (stereo not given) | 3.7%
COC(=O)c1[nH]c2ccccc2c1NC(=O)CN1CCN(C/C=C/c2ccccc2)CC1 | -7.1%
O=C1C2C3CC(C(Br)C3Br)C2C(=O)N1CC1CCCO1 (stereo not given) | -3.3%
CNC(=S)Nc1ccccc1-c1ccccc1 | 10.2%
COc1ccc(OC)c(NS(=O)(=O)c2ccc(NC(=O)c3ccc(NS(C)(=O)=O)cc3)cc2)c1 | 4.7%
C=CCOC(=O)C1=C(C)OC(N)=C(C#N)C1c1ccccc1F (stereo not given) | -11.1%
COc1ccc(/C(CC2OC(=O)c3ccccc32)=N\NC(N)=O)cc1 (stereo not given) | -13.3%
O=C(Cn1nnc(-c2ccccc2Cl)n1)N1CCCCC1 | 18.2%
Cc1ccc(N2CN(CCC3=CCCCC3)CNC2=S)cc1 | -20.7%
CCOC(=O)c1ccn(-c2nc(-c3ccco3)cc(C(F)(F)F)n2)n1 | -2.5%
Cc1ccc(NC(=O)c2c(C)oc3ccc(O)c(CN4CCCC4)c23)c(C)c1 | -14.1%
CNC(=O)c1cc2c(=O)n3cc(C)ccc3nc2n(C(C)C)c1=N | -4.6%
O=C(Nc1ccc2c(c1)OCO2)c1nn(-c2ccccc2)c(=O)c2ccccc12 | 18.1%
C#Cc1ccc([C@H]2C=C(C(=O)NCc3ccccc3)O[C@@H](OCc3ccc(CO)cc3)C2)cc1 | -10.6%
CCOC(=O)CC(=O)CSc1nc(C)nc2c1oc1ccccc12 | 7.0%
O=C(NCc1ccco1)c1cc2ccccc2c(=O)o1 | 5.8%
O=C(Oc1ccc(-n2cnnn2)cc1)c1ccccc1 | -8.9%
COc1cccc2sc(N3CCN(C(=O)c4cccs4)CC3)nc12 | -24.2%
Cc1cc(C)cc(NC(=O)NCc2noc3ccccc23)c1 | 3.4%
CCN(CC)C(=O)c1sc2c(c1C)c(=O)n(-c1ccc(Cl)c(Cl)c1)c(=O)n2CC(=O)Nc1cccc(OC)c1 | -10.9%
COc1cccc(-c2cc(C(=O)NCCc3ccccc3)no2)c1 | 12.5%
CCCCNC1CCS(=O)(=O)C1 (stereo not given) | 15.8%
O=C(CS(=O)(=O)c1cccc2nsnc12)NCc1ccccc1 | 0.4%
Cc1ccc(CNC(=O)C(CC(C)C)NS(=O)(=O)c2ccc3c(c2)oc(=O)n3C)cc1 (stereo not given) | -23.8%
CCc1nnc(NC(=O)C2CSC3(C)CCC(=O)N23)s1 (stereo not given) | 1.9%
O=C(NNC(=O)c1oc2ccccc2c1-n1cccc1)c1ccco1 | 8.3%
O=C(NCC1CCN(c2ccc(S(=O)(=O)N3CCOCC3)cc2)CC1)c1ccc(Cl)cc1 | 0.8%
COc1ccc(N2CCN(C(=O)c3ccc4c(=O)n5c(nc4c3)CCCCC5)CC2)cc1 | -27.1%
CC(=O)c1ccccc1NC(=O)c1ccc(N2CCCC2=O)cc1 | ?
Cc1cccc(C(=O)NC2CC3CCC(C2)N3C)c1 (stereo not given) | -22.6%
N#Cc1ccccc1NC(=O)C(=O)NCC(c1cccnc1)N1CCc2ccccc21 (stereo not given) | 4.3%
Cc1ccc2nc(C)cc(C(=O)N3CCCC(N4CCN(c5ccccc5C)CC4)C3)c2c1 (stereo not given) | 6.3%
COc1cccc(CNC(=O)C2(C)Oc3ccccc3NC2=O)c1 (stereo not given) | 2.4%
CN1CCN(c2ccc(S(=O)(=O)N3CCOCC3)cc2NC(=O)CCc2ccccc2)CC1 | -0.4%
COc1cc(OC)cc(C(=O)NNC(=O)NC2CCCCC2)c1 | 13.5%
C/C(=N\Nc1cc(-c2ccccc2)nc(-c2ccc(Br)cc2)n1)c1cccc(N)c1 | 4.7%
CCC(C)NC(=O)c1ccccc1NC(=O)C1COc2ccccc2O1 (stereo not given) | -1.3%
Cn1nnc2cc(C(=O)N3CCCCCC3)ccc21 | -12.7%
CC(=O)Nc1ccc(OCc2nnc(-c3ccc(Cl)cc3)o2)cc1 | 0.2%
Cc1onc(-c2ccccc2Cl)c1C(=O)NC(=S)NCCc1ccccc1 | ?
CCc1ccc(S(=O)(=O)c2c(C(=O)c3ccccc3)cnc3ccc(CC)cc23)cc1 | 6.5%
O=C(O)c1cccc(-n2nc(-c3ccc(Cl)c([N+](=O)[O-])c3)c3ccccc3c2=O)c1 | -7.5%
O=C(Cc1ccccc1[N+](=O)[O-])N1CCN(S(=O)(=O)c2ccccc2)CC1 | -5.4%
CSc1nc2ccc(S(=O)(=O)N3CCc4ccccc43)cc2s1 | -2.2%
O=C(c1ccccc1Br)N1CCC(c2nc3ccccc3s2)CC1 | -13.6%
O=C(N/N=C/c1cccnc1)c1ccccc1Cl | -1.4%
CC(C)(CNC(=O)CCC1CCCC1)CNC(=O)CCC1CCCC1 | -13.3%
O=C(c1cc2nc(-c3cccs3)cc(C(F)(F)F)n2n1)N1CCCc2ccccc21 | -1.6%
Cc1ccc(S(=O)(=O)C2CCCCC2=O)cc1 (stereo not given) | -0.6%
O=C(Nc1ccncc1)c1cc2ccccc2o1 | 2.3%
COc1cccc(COC(=O)CSCC(=O)Nc2cccc(C)c2)c1OC | ?
COc1ccc(C2C(C(C)=O)=C(O)C(=O)N2c2cccnc2)c(OC)c1 (stereo not given) | 0.2%
CN(CC(=O)Nc1ccc(F)c(F)c1F)C(=O)C1CCN(C(=O)Nc2ccccc2)CC1 | 0.6%
COc1ccc(NC(=O)c2cccc(S(=O)(=O)N(C)c3ccccc3)c2)cn1 | 3.8%
O=C(O)c1ccc(CNC(=O)C2CCCN2C(=O)OCc2ccccc2)cc1 (stereo not given) | -2.5%

# Remaining list, next part.
canonical_smiles | VDR inh
Cc1ccc(N2C(=O)CSC23C(=O)N(CC(=O)NCc2ccccc2)c2ccccc23)cc1 (stereo not given) | 6.8%
Cc1ccc2nc(-c3ccc(N4C(=N)SC5CS(=O)(=O)CC54)cc3)sc2c1 (stereo not given) | -3.1%
CCCOC(=O)c1ccc(N2C(=O)c3ccccc3C2=O)cc1 | -19.4%
O=C(O)Cc1csc(-c2ccc(Cl)cc2)n1 | 2.2%
COC(=O)CSc1nc2c(c(-c3ccc(O)cc3)c1C#N)CCCC2 | -2.3%
CCOc1ccccc1NC(=O)N1C2CCCC1CC(NC(=O)C1CC1)C2 (stereo not given) | 15.1%
COc1ccc(NC(=O)c2cc3c(Cl)nc4ccccc4c3s2)c(OC)c1 | 7.2%
COC(C(=O)Nc1ccc(C(C)=O)cc1)c1ccccc1 (stereo not given) | -4.0%
CNC(=O)C1CCC(=O)N1Cc1ccc(C)cc1 (stereo not given) | 0.0%
O=C(c1ccc(N2C(=O)c3ccccc3C2=O)cc1)N1CCCCC1 | 13.8%
COC(=O)CN1C(=O)[C@H]2[C@@H](c3ccc(C)o3)N3C(=O)CN(CC4CC4)C(=O)[C@@]3(Cc3ccccc3)[C@H]2C1=O | -11.0%
O=C(NCc1cccnc1)c1ccccc1-c1nc(-c2ccccc2)no1 | 1.4%
COc1cccc(N(CC(=O)NCCSCc2ccco2)S(=O)(=O)c2ccccc2)c1 | -1.8%
OC(c1ccc2ccccc2n1)c1c(Cl)cccc1Cl (stereo not given) | -13.2%
COc1ccc(NC(=O)c2cccn2-c2nnc(N3CCCCC3)s2)c(OC)c1 | 13.3%
Cc1cc2ncn(C(=O)N3CCOCC3)c2cc1C | 8.4%
CC(=O)Nc1ccc(NC(=O)COc2ccc(S(=O)(=O)N3CCCC3)cc2C)cc1 | -21.7%
S=C(Nc1ccc(Cl)cc1)Nc1ccc2c(c1)OCCO2 | -9.6%
COc1ccccc1CNC(=S)NCc1ccc(Cl)cc1 | 13.6%
Cc1cc(C)c(S(=O)(=O)Nc2ccc(-c3ccc(N4CCCCC4)nn3)cc2)c(C)c1 | 12.0%
Cn1nnnc1Sc1ncnc2scc(-c3cccc(F)c3)c12 | 4.7%
COc1ccc(Br)cc1/C=C/C(=O)NC(=S)Nc1ccc(Cl)c(C(=O)O)c1 | ?
CC(=O)Nc1c(O)nc(SCC(=O)N2CCCCC2)[nH]c1=O | -3.4%
CC1CCc2nc(NC(=O)CCSc3ccccc3)sc2C1 (stereo not given) | ?
Cc1cccc(C)c1NC1=C(Cl)C(=O)OC1OC(=O)c1ccccc1 (stereo not given) | -6.6%
Cc1nnc(NC(=O)C2CC(=O)N(C(C)c3ccccc3)C2)s1 (stereo not given) | 0.6%
COc1cc(OC)c(NC(=O)c2nn(C)c3c2COc2ccccc2-3)cc1Cl | 3.1%
O=C1COc2ccccc2CN1 | -5.3%
Cc1ccccc1SCC(=O)NNC(=O)c1ccncc1 | -18.4%
CO/N=C(/CS(=O)Cc1ccc(Cl)cc1)c1ccc(Cl)cc1 (stereo not given) | -2.0%

# 3 entries picked at random from those above, as already listed:
canonical_smiles | VDR inh
CCN(CC)C(=O)c1sc2c(c1C)c(=O)n(-c1ccc(Cl)c(Cl)c1)c(=O)n2CC(=O)Nc1cccc(OC)c1 | -10.9%
O=C(c1cc2nc(-c3cccs3)cc(C(F)(F)F)n2n1)N1CCCc2ccccc21 | -1.6%
COC(C(=O)Nc1ccc(C(C)=O)cc1)c1ccccc1 (stereo not given) | -4.0%

# Continuation.
canonical_smiles | VDR inh
CN(C)CCCN1C(=O)C2CCc3[nH]c4ccccc4c3C2C1=O (stereo not given) | -8.0%
CC(=O)c1ccccc1OC(=O)COc1ccc([N+](=O)[O-])cc1 | ?
O=c1c(-c2ccccc2)coc2c(CN3CCOCC3)c(O)ccc12 | -4.9%
COc1ccc(NS(=O)(=O)NC(=O)c2c[nH]c3ccccc23)cc1 | -17.0%
Cc1ccc(Cl)cc1N1CCN(C(=O)c2cc(S(=O)(=O)N3CCCC3)cn2C)CC1 | 6.2%
CN(C)/C=N/c1c(C#N)cnn1-c1ncnc2sc(-c3ccccc3)cc12 | 3.5%
CCC(=O)OC1(C)C(=O)C2=COC(c3ccc(OC)cc3)=CC2=C(Br)C1=O (stereo not given) | ?
C=CCN(CC=C)C(=S)NC(=O)/C=C/c1ccc(C)cc1 | 0.0%
Cc1c(Cl)cccc1NC(=S)NCCc1ccc(Cl)cc1 | 23.5%
Cc1ccc(C)c(N2C(=O)CC(Cc3ccc(Cl)cc3)C2=O)c1 (stereo not given) | 4.6%
Cc1cccc(-n2ccnc2SCC(=O)Nc2cc(C(F)(F)F)ccc2Cl)c1 | 0.9%
Nc1ncnc(Sc2ccc(Cl)cc2)c1[N+](=O)[O-] | -1.4%
CCOC(=O)CC(NC(=O)Cn1nnc(-c2ccccc2)n1)c1ccc(OC)cc1 (stereo not given) | 30.7%[activator]
N#C/C(=N\Nc1ccccc1)C(=N)N1CCCCCC1 | -15.5%
CCOC(=O)CN1C(=O)C(CC)Oc2ccc(Cl)cc21 (stereo not given) | 13.8%
COc1cccc(/C=N/NC(=O)c2[nH]nc3c2CCc2ccccc2-3)c1O | -17.6%
O=[N+]([O-])c1ccc(COc2ccc(-c3[nH]ncc3-c3ccc(Cl)cc3)c(O)c2)cc1 | -10.9%
O=C(CCN1C(=O)[C@@H]2Cc3ccccc3CN2C1=O)NCCc1ccccc1 | 4.5%
CC(=O)Nc1ccc(S(=O)(=O)N2CCSC2c2ccccc2Cl)cc1 (stereo not given) | -2.2%
C=CCc1cccc(CNc2ccc(S(=O)(=O)Nc3nccnc3OC)cc2)c1O | -10.5%
O=C(NCCCN1CCOCC1)c1cc(C(=O)C2CC2)c[nH]1 | 10.2%
CN(C)c1ccc(Cl)cc1N | -8.2%
Cc1ccc(C(NC(=O)N2CCOCC2)=C(Cl)Cl)cc1F | 5.2%
O=[N+]([O-])c1ccc(-c2ccc(C=Nc3cccc4ccccc34)o2)cc1 | 13.5%
Nc1nc(OCc2ccccc2)c2[nH]cnc2n1 | 1.6%&-16.0%
Cc1ccc(S(=O)(=O)/N=C(\CN2CCOCC2)N2CCCC2)cc1 | -5.1%
COc1cc(C2N=C(N)Nc3nc4ccccc4n32)ccc1OCC(=O)O (stereo not given) | ?
CC(C)CC(=O)Nc1ccc2nc(SCC(=O)N3CCCC3)sc2c1 | 12.8%
CCOC(=O)c1c(-c2ccccc2)oc2ccc(OCC(=O)NNC(=O)CCCC(=O)O)cc12 | 5.4%
CCc1nc2ccc(C)cc2c(C(=O)Oc2cccc3cccnc23)c1C | -5.0%
CCn1ncc(C2=NOC(C(=O)Nc3cccc(C(C)=O)c3)C2)c1C (stereo not given) | -19.3%

# 4 consecutive entries out of the list so far, quoted:
canonical_smiles | VDR inh
COc1cc(C2N=C(N)Nc3nc4ccccc4n32)ccc1OCC(=O)O (stereo not given) | ?
CC(C)CC(=O)Nc1ccc2nc(SCC(=O)N3CCCC3)sc2c1 | 12.8%
CCOC(=O)c1c(-c2ccccc2)oc2ccc(OCC(=O)NNC(=O)CCCC(=O)O)cc12 | 5.4%
CCc1nc2ccc(C)cc2c(C(=O)Oc2cccc3cccnc23)c1C | -5.0%

# Some of the entries above in a different format.
> C=CCOC(=O)C1=C(C)OC(N)=C(C#N)C1c1ccccc1F (stereo not given)
  VDR inh: -11.1%
> COc1ccc(/C(CC2OC(=O)c3ccccc32)=N\NC(N)=O)cc1 (stereo not given)
  VDR inh: -13.3%

# Some of the compounds tested, so the mix of outcomes need not match the whole.
